MgrA DNA FP: S. aureus MgrA activity modulators, primary screen, biochemical, S. aureus Newman, fluorescence polarization. AID 602314, 2012. inhibition, %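 (about 10 µg/mL by stock and volumes)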. 84,000 compounds, 0.13% hits. MgrA-DNA binding;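 active = above 50% in either of two replicates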;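 also: 0% = protein plus DNA without compound and 100% = DNA alone without protein; higher means less MgrA bound to DNA so lower polarization; one replicate is shown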
Sa helicase inh: inhibitors of S. aureus replicative helicase, primary screen, biochemical, fluorescence unwinding readout | replicative DNA helicase (DnaC/DnaB), Staphylococcus aureus | purified S. aureus helicase, fluorescence unwinding assay; about half of the hits fall short of the stated cut | inhibition, %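 (tested at about 80 µM)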 | 120,000 compounds, 0.05% hits;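 active = both duplicates at 50% or more, or one of them with a favoured structure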;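 also: 0% = mean of negative control wells and 100% = mean of positive control wells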
The depositor's hits bear a star; / = not tested or not shown; & = joins results of further samples. These rows are one share of the data; count on the stated rates, not on these rows.

SMILES	MgrA DNA FP	Sa helicase inh
CCC(=O)OC1C(C)OC(OC2C(C)OC(O[C@H]3[C@@H](CC=O)C[C@@H](C)[C@@H](O)/C=C/C=C/C[C@@H](C)OC(=O)C[C@@H](OC(=O)CC)[C@@H]3OC)C(O)C2N(C)C)CC1(C)O (stereo not given in full)	-1.8	/
O=C(O)CCCC(=O)Nc1nc2ccccc2s1	/	-12
Cc1cc(N2CCN(c3ccccc3)CC2)n2c(nc3ccccc32)c1C#N	/	-7
O=C1CN(S(=O)(=O)c2ccccc2)CC(=O)N1	4.3	/
CCN(CC)S(=O)(=O)c1ccc(NC(=O)[C@@H]2CCCC[C@@H]2C(=O)O)cc1	/	2
Cn1c(SCCC(=O)O)nc2ccccc21	-1.9	13
Cc1cccn2c(=O)c3cc(C#N)c(=NC(=O)c4ccccc4)n(Cc4ccco4)c3nc12	/	-53
CC1CN(S(=O)(=O)c2ccc(NC(=O)CCCCCN3C(=O)c4ccccc4C3=O)cc2)CC(C)O1 (stereo not given)	/	9
CCC(C)c1ccc(S(=O)(=O)NC(C)(C)CC)cc1 (stereo not given)	/	-6
O=C(Nc1cccc2c1CCCC2)N1c2ccccc2Sc2ccccc21	0.9	6

Gathered by group: those above containing a COOH group (3)
SMILES	MgrA DNA FP	Sa helicase inh
O=C(O)CCCC(=O)Nc1nc2ccccc2s1	/	-12
CCN(CC)S(=O)(=O)c1ccc(NC(=O)[C@@H]2CCCC[C@@H]2C(=O)O)cc1	/	2
Cn1c(SCCC(=O)O)nc2ccccc21	-1.9	13

Continuation.
SMILES	MgrA DNA FP	Sa helicase inh
CCNc1cc(NC(C)=O)ccc1C	-3.5	/
O=C(CSc1ccccc1)Nc1nc2ccccc2[nH]1	/	-3
Cc1ccc(Cn2c(N)c(C#N)c3nc(C#N)c(C#N)nc32)cc1	/	-9
O=S(=O)(NCc1ccc2c(c1)OCO2)c1ccccc1	-0.1	9
O=c1c2cc3c(cc2nc2sc(NCc4ccccc4)nn12)OCO3	/	-7
O=C(NC1=NCCS1)c1cc2c(s1)CCC2	-3.4	-28
CSc1nc(N/C=C(\C#N)S(=O)(=O)c2ccccc2Cl)nc(C2CC2)n1	1.1	/
Cc1ccc(CSc2nccc(C)n2)cc1	-3.0	-1
O=C(CSCc1cccc2ccccc12)NNC(=S)Nc1ccccc1Cl	2.9	/
O=C(CCNC(=O)c1ccco1)Nc1cc(Cl)ccc1N1CCCCCC1	/	-12
CCOC(=O)C1=C(C)NC(SC)=C(C#N)C1CC(C)C (stereo not given)	/	6
O=C(c1ccccc1)C(O)c1c[nH]c2ccccc12 (stereo not given)	1.9	-14
OC(COCc1ccccc1)Cn1cnc2ccccc21 (stereo not given)	-1.2	17
CCSC(=C(C#N)C#N)c1cc2c([nH]1)CCCC2	2.4	1
O=C(COC(=O)/C=C/c1cn(-c2ccccc2)nc1-c1ccccc1)NC1CC1	1.2	10
Cn1c(SCC(=O)c2ccc(O)cc2O)nc2sccc2c1=O	/	-3
O=C1NC(=S)N/C1=C\c1ccccc1	/	-19
NC(=O)c1ccc(N2CCN(C(c3ccccc3)c3ccccc3)CC2)nc1	1.4	-2
NC(=O)CC(=O)c1ccc(F)cc1	2.7	/
N=C1/C(=C/c2ccco2)C(=O)N=C2SC=C(c3ccccc3)N12	4.2	-1
O=C(Nc1nnc(CCS(=O)(=O)c2ccc(Br)cc2)s1)C1CCCCC1	1.7	/
COc1ccc(C2C3=C(Nc4[nH]c(=O)[nH]c(=O)c42)c2ccccc2C3=O)cc1 (stereo not given)	24	8
CN(c1ccccc1)S(=O)(=O)c1ccc(C(=O)NC2=NCCS2)cc1	/	-4
Cc1ccc(Cc2nnc(C(=O)NCC3CCCO3)o2)cc1 (stereo not given)	/	2
CC1CC(C)CN(C(=O)Nc2ccc(F)cc2)C1 (stereo not given)	-1.1	-6
Cc1ccc(-n2c(C)cc(-c3csc(NC(=O)C(C)C)n3)c2C)cc1	/	-2
COC(=O)C(C)Sc1n[nH]c(-c2ccc(Br)cc2)n1 (stereo not given)	/	-3
COc1ncnc2sc(C(=O)O)c(C)c12	/	-10
Cc1cc(OCCn2cc(/C(N)=N/O)c3ccccc32)ccc1Cl	/	2
O=S(=O)(c1cc(Cl)c(Cl)cc1Cl)N1CCOCC1	3.1	/
Cc1ccc(S(=O)(=O)NC(=O)N2CCCCCC2)cc1	/	-14
Cc1cc(-n2nc3ccccc3n2)c2oc(SCc3nnc(-c4ccccc4)o3)nc2c1	-0.6	8
COc1ccc(/C=C/C(=O)NCCn2ccc3ccccc32)cc1OC	/	-13
CC(NC(=O)CSc1nnc2ccccn12)c1ccc2c(c1)OCCO2 (stereo not given)	/	-11
S=C(NCCc1ccccc1)NNC1=NCCCCC1	/	6
COc1ccc(-c2csc3nc(-c4ccccc4Cl)oc(=O)c23)cc1	-1.5	/
Cc1nnc(SC(C)C(N)=O)n1Cc1ccccc1 (stereo not given)	/	7
O=C(Nc1ccc(S(=O)(=O)Nc2ccccn2)cc1)c1cc2ccccc2o1	-0.4	2
COC(=O)c1c(C(=O)OC)c2n(c1C)CSC2	-1.5	/
CCN(CC)c1ccc(C(=O)OCc2nc3ccccc3c(=O)[nH]2)cc1	/	-4
O=C(O)C1C2C=CC3(CN(CC4CCCO4)C(=O)C13)O2 (stereo not given)	/	12
CCn1c(C(=O)N2CCC(C(=O)NCc3ccccc3OC)CC2)cc2sccc21	/	8
O=C(CCCN1C(=O)/C(=C\c2ccco2)SC1=S)N1CCCCC1	/	7
Cc1cc(C)c2c(n1)SCC(=O)N2CC(=O)NC(C)C	/	9
COc1ccc(CCNC(=O)c2ccc(N3CCCC3=O)cc2)cc1OC	/	21
S=C1NCc2ccsc2S1	11	-2
COc1ccc(S(=O)(=O)C(C#N)c2nc3ccccc3nc2N2CCCC2)cc1 (stereo not given)	/	-2
O=C(NC1CCCC1)c1ccc2c(c1)OCO2	-1.8	13
O=C(/C=C/c1ccco1)OCCN1CCOCC1	-1.0	16
C=C1C(C(=O)Nc2ccc3c(c2)OCCO3)C1C(=O)Nc1ccc2c(c1)OCCO2 (stereo not given)	1.6	14

The results go on.
SMILES	MgrA DNA FP	Sa helicase inh
Clc1ccc2sc(Oc3cccc(N4CCOCC4)c3)nc2c1	2.3	/
COc1cc2c(cc1OC)CN(Cc1ccc(C)o1)CC2	0.3	4
COC(=O)CSC(=S)N1CCC(C)CC1	/	-4
CC(NC(=O)CC1CCCCC1)c1ccccc1 (stereo not given)	-1.1	10
Nc1ccccc1C(=O)c1ccccc1C(=O)O	0.6	16
O=S1(=O)CCN(Cc2cc(F)cc3c2OCOC3)CC1	1.6	/
COc1ccc(-c2csc3ncc(S(=O)(=O)c4ccc(F)c(Cl)c4)c(=O)n23)cc1OC	-0.1	-7
C=CCN1C(=O)NC(=O)/C(=C/c2ccccc2OCc2ccc(Cl)cc2)C1=O	-7.5	/
Cc1cc(O)c(-c2ccn[nH]2)c(=O)o1	-1.6	/
O=C(Nc1ccc(N2CCCCC2)cc1)c1c(Cl)nc2sccn12	/	5

Shown with values under each structure: 3 of the compounds above.
Below each compound: MgrA DNA FP | Sa helicase inh
CC(NC(=O)CC1CCCCC1)c1ccccc1 (stereo not given)
 : -1.1 | 10
Nc1ccccc1C(=O)c1ccccc1C(=O)O
 : 0.6 | 16
O=S1(=O)CCN(Cc2cc(F)cc3c2OCOC3)CC1
 : 1.6 | /

Remaining list, next part.
SMILES	MgrA DNA FP	Sa helicase inh
COC(=O)c1ccc(CN2CCN(c3ccccc3)CC2)o1	/	-1
c1ccc(C2OCc3nonc3CO2)cc1	2.0	1
O=C(COC(=O)c1cncc(Br)c1)NC1CC1	2.2	-11
Cc1c(C)c(C)c(CN2CCSCC2)c(C)c1C	1.4	/
Cc1cccc(C)c1NC(=O)C1c2cccc[n+]2CC(=O)N1C (stereo not given)	-0.1	8
OCCSCc1cc(Cl)ccc1OC(F)F	/	-6
CCOC(=O)c1ccc2nc(NC(=O)COC(=O)c3ccnn3C)sc2c1	1.9	-3
CCNC(=S)N1CCN(C)CC1	-1.1	0
COc1ccc(CCNC(=O)c2cnn(-c3ccc(C)c(C)c3)c2NC(=O)c2ccco2)cc1OC	-1.1	2
CCCN(Cc1ccccc1)C(=O)c1ccc(N2C(=O)c3ccccc3C2=O)cc1	/	5

Some of the entries above in a different format.
SMILES | MgrA DNA FP | Sa helicase inh
COC(=O)c1ccc(CN2CCN(c3ccccc3)CC2)o1 | / | -1
c1ccc(C2OCc3nonc3CO2)cc1 | 2.0 | 1
O=C(COC(=O)c1cncc(Br)c1)NC1CC1 | 2.2 | -11
Cc1c(C)c(C)c(CN2CCSCC2)c(C)c1C | 1.4 | /
Cc1cccc(C)c1NC(=O)C1c2cccc[n+]2CC(=O)N1C (stereo not given) | -0.1 | 8
OCCSCc1cc(Cl)ccc1OC(F)F | / | -6

(further entries)
SMILES	MgrA DNA FP	Sa helicase inh
COc1ccc(N(CC(=O)Nc2cc(C)on2)S(=O)(=O)/C=C/c2ccccc2)cc1	/	7
CCCCNC(=O)c1ccccc1NC(=O)C1=C(C)OCCS1	/	24
O=C(CCn1c(=O)sc2ccccc21)NCc1ccccc1	/	8
Nn1c(SCC2CCCCO2)nnc1-c1ccncc1 (stereo not given)	/	9
CCOC(=O)CCc1c(C)nc(SCC(=O)O)c(C#N)c1C	1.8	0
CCCNC(=O)c1ccc(C)c(NC(=O)C2=CSCCO2)c1	/	9
Cc1cc(NC(=O)CC(C)C)no1	1.4	-5
CCCNC(=O)NC1CC(C)(C)NC(C)(C)C1	0.8	2
CSc1ccc(C2Nc3ccc4ncccc4c3C3=C2C(=O)CCC3)cc1 (stereo not given)	/	11
O=C1Nc2ccccc2/C1=C/c1ccc(Oc2ccccc2)nc1	-3.0	/
c1ccc(SCc2nc3ccccc3[nH]2)cc1	-0.8	/
O=C(NC1CCCc2ccccc21)c1cccnc1 (stereo not given)	/	-5
O=C(Cn1cnc2ccccc2c1=O)c1cccs1	-2.7	7
O=C(NCCN1CCNC1=O)Nc1cccc2ccccc12	/	13
O=C(O)c1nccnc1C(=O)N1CCN(C(c2ccccc2)c2ccccc2)CC1	/	-4
O=C(c1ccco1)N1CCN(C(=S)Nc2ccc(S(=O)(=O)Nc3ncccn3)cc2)CC1	1.1	9
COc1cc2c(cc1OC)CN(C1CCCCN(C(=O)c3ccc(F)cc3)C1=O)CC2 (stereo not given)	/	-10
CCCCCN=C(N)N/N=C/c1c[nH]c2ccc(OC)cc12	0.1&0.4	/
Cc1[nH]c(=O)c(C#N)c2c1CCCC2	/	-5
CCOC(=O)C1=CN(C(C)C)C=C(C(=O)OCC)C1c1ccccc1Br	2.7	10
O/N=C1/c2ccccc2/C(=N/O)C1c1ccc(Cl)cc1	0.7	23
CCCOc1cccc(-c2nc3ccccc3c(=O)o2)c1	/	9
c1cncc(-c2nc3c4c5c(sc4ncn3n2)CCCC5)c1	3.0	3
Oc1ccc(C(Nc2cccnc2)Sc2ccc(Cl)cc2)cc1 (stereo not given)	1.6	13
CCc1ccc(C(=O)COC(=O)c2cnc(C)cn2)cc1	/	3
CC1CN(C(=O)C(C)NS(=O)(=O)c2cccc(Cl)c2)CC(C)O1 (stereo not given)	-1.3	6
CCNCC(=O)Nc1ccc(NC(C)=O)cc1	/	-16
C=CCN1C(=O)/C(=c2\sc3nc(-c4cc(OC)c(OC)c(OC)c4)nn3c2=O)c2ccccc21	/	-10
O=C1CSc2cc(S(=O)(=O)N3CC=C(c4ccccc4)CC3)ccc2N1	5.3	-2
CC1CCN(CC(=O)O)CC1	-5.4	-7
Cc1cccc(NC(=O)c2cccc3c2C(=O)N(CC2CCCO2)C3)c1C (stereo not given)	/	5
Nc1c(C(=O)c2ccc(Cl)cc2)sc2nsc(SCCN3CCCCC3)c12	-0.4	/
CCCNC1=CC(=O)C(NCCC)=CC1=O	0.9	-4
COc1ccc2c(c1)oc(=O)c1ccccc12	0.0	-24
CC(=O)NC(C)c1nc2ccccc2n1CC(=O)Nc1ccc(C(C)C)cc1 (stereo not given)	0.7	10
CC1(C)S[C@@H]2[C@H](NC(=O)[C@H](NC(=O)N3CCNC3=O)c3ccccc3)C(=O)N2C1C(=O)O (stereo not given in full)	3.7&0.7	/
O=C(COC(=O)C1CCN(c2ccc(C(F)(F)F)cn2)CC1)Nc1ccc(C(F)(F)F)cc1	/	9
N#CCCN(Cc1cccs1)S(=O)(=O)c1ccc(-c2ccccn2)s1	/	-19
CC(NC(=O)Cc1c[nH]c2ccccc12)C(=O)O (stereo not given)	-1.7	-14
Cc1ccc(S(=O)(=O)Nc2nc3ccccc3nc2NCc2ccco2)cc1C	/	1

Single records, as listed above:
Entry for Cc1ccc(S(=O)(=O)Nc2nc3ccccc3nc2NCc2ccco2)cc1C : MgrA DNA FP: /; Sa helicase inh: 1
Entry for O=C(Cn1cnc2ccccc2c1=O)c1cccs1 : MgrA DNA FP: -2.7; Sa helicase inh: 7

Further results
SMILES	MgrA DNA FP	Sa helicase inh
CC(CNS(=O)(=O)c1ccc(-c2ccc(=O)[nH]n2)o1)c1ccccc1 (stereo not given)	/	-23
O=C1COc2cc(S(=O)(=O)CCC(=O)N3CCc4ccccc43)ccc2N1	-1.1	1
S=C1NCN(Cc2ccccc2)CN1c1ccccc1	/	-23
O=C1NCCCC1C(=O)N1CCc2ccccc21 (stereo not given)	2.1	-13
Cc1cc(C)n(C2=NCCN2S(=O)(=O)c2cc(C(F)(F)F)cc(C(F)(F)F)c2)n1	-1.4	/

From PubChem
